CtBP-E1A blk: inhibitors of CtBP/E1A interaction. actives 0.49% (n = 340,000). activity change, % (concentration not given with the values). AlphaScreen GST-E1A/His-CtBP binding, 1536-well; hits give low values; control for the full effect not named in the record; in the data active means activity change below about -65%; inconclusive means about -30% to -65%; inactive means above about -30%; further: on the % scale 0 is the no-effect control and ±100 the full control effect
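AlphaScreen with 125 nM GST-E1A and 125 nM His-CtBP (5X stocks) in Tris pH 8.0, 300 mM NaCl, BSA, Tween 20, TCEP. Compounds preincubated 2 h at 37 deg C, then glutathione donor/nickel acceptor beads added for 1 h at 37 deg C in dark.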
TRPV1 potentiator: human TRPV1 potentiation; TRPV1-expressing cells, Fluo-8 calcium influx, capsaicin EC20 potentiation; host cell line not named in the record; control for the full effect not named in the record; AID 540277; potentiation, % at 8.33 µM; actives 0.02% (n = 320,000); active means potentiation above 80%; inconclusive means 30% to 80%; inactive means below 30%; further: 0% is about no effect
Target sequence (Q8NER1 whole entry, looked up): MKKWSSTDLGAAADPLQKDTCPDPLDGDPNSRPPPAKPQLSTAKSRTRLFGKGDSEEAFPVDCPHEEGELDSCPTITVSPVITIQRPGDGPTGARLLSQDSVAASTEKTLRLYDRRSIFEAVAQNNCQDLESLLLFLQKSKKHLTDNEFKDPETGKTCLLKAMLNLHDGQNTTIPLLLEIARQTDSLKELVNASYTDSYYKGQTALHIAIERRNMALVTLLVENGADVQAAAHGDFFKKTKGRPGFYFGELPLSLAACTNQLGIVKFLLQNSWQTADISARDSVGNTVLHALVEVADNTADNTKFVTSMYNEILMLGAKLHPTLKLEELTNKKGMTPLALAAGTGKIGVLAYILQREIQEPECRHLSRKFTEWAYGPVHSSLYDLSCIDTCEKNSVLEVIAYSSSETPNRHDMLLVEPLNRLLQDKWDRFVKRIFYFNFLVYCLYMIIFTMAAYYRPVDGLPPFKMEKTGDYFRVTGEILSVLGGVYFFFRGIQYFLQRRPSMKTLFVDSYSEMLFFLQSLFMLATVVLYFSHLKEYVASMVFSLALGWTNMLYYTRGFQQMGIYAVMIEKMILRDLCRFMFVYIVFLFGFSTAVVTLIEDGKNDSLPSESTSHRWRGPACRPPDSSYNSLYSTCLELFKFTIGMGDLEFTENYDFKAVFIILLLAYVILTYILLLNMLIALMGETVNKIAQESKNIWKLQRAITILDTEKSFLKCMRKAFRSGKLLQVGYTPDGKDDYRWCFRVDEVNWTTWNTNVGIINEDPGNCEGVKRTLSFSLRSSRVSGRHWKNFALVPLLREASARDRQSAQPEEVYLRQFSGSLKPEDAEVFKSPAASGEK
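Fluo-8 calcium influx in TRPV1-expressing cells, kinetic read (ex 480/em 520 nm). Compound added and read 3 min for agonist activity, followed by capsaicin at EC20 final and 2 min further read for enhancement.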
gsp antagonist: antagonizes gsp, the McCune-Albright syndrome mutation | gsp-mutant cells, cAMP HTRF, 30 min; control for the full effect not named in the record | Potency, µM (titrated, usually from 76.9 µM), for the others: top-dose activity change, negative = inhibition, usual class: inhibitors | actives 0.4% (n = 340,000); active = falling curve of any shape with a large fitted effect; inconclusive = falling curve, mostly with a smaller effect; inactive = flat or rising curve; cell line not stated here;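 further: intracellular cAMP measured with PDE inhibitor Ro 20-1724 present during compound exposure; potency means the concentration at half of the fitted maximal effect; on the % scale 0 is the no-effect control and ±100 the full control effect; nearly all actives have a fitted effect of over 65% in size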
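Measurement of cellular cAMP by homogeneous time-resolved fluorescence following a 30 min compound exposure at 37C. The PDE inhibitor […] was present throughout; the assay buffer was DPBS with 0.05% BSA and 0.005% Tween 20.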
Sfp PPTase inh: Sfp phosphopantetheinyl transferase inhibition; Q9F4F7; Biochemical Sfp PPTase activity, qHTS; Potency, µM, without a hit: max response, negative = inhibition, hits mostly inhibitors; actives 3.5% (n = 310,000); active means well fitted inhibition curve with a large enough effect; inconclusive means small, poorly fitted or top-dose-only effect, or another doubt; inactive means no such curve, though single readings can be large or run the other way;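 further: the enzyme is Sfp with the accession as filed and its product quenches rhodamine fluorescence; potency means the concentration at half of the fitted maximal effect; 0% = enzyme reaction without inhibitor and -100% = no enzyme wells; top concentration of the series not given in the record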
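Compounds were incubated with enzyme (final 15 nM) for 15 min at room temperature before substrate addition started the reaction. Fluorescence at 525 nm excitation, 598 nm emission was recorded immediately and after 30 minutes.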
Menin-MLL FL inh: menin-MLL binding inhibition, fluorescein peptide. Fluorescence polarization, fluorescein-MLL peptide displacement from menin. FP activity change, % at 61.4 µM. 290,000 tested, under 10 active. AID 1766; inconclusive = falling polarisation curve, or a change in total fluorescence; inactive = total fluorescence flat and polarisation flat or rising; no compound was filed as active; the % refers to the polarisation; negative = inhibition;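 further: % of control where 0% means no effect; inhibitors lower the polarisation; unlabelled MLL peptide was the positive control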
ClpP mod: qHTS Assay for Activators of ClpP | ATP-dependent Clp protease proteolytic subunit (Bacillus subtilis (strain 168)), P80244 | purified B. subtilis ClpP, FRET peptide cleavage, 20 min | Potency, µM (titrated, usually from 57.5 µM), inactives show at the top dose activity change, negative = active | actives 1.9% (n = 340,000); active = well fitted falling curve with a large enough effect; inconclusive = small, poorly fitted or top-dose-only effect; inactive = no such curve, though single readings can be large or run the other way; further: potency means the concentration at half of the fitted maximal effect; the source files actives as falling curves though it sought activators and does not explain the sign; nearly all actives have a fitted effect of over 65% in size; many hits overshoot -100%
Target sequence (P80244 whole entry, looked up): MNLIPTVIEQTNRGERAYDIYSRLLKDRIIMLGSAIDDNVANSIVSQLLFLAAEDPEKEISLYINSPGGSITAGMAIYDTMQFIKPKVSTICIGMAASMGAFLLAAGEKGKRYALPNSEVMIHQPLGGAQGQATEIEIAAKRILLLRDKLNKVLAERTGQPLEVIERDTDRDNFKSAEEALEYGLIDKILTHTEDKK
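ClpP 10 microg/mL final, pH 8 Tris/KCl buffer with BSA, glycerol, Tween-20; compound pinned in; FRET-FV substrate; RT 20 min; Ex320/Em430; ΔFRET vs ADEP 5.8 microM, DMSO, no enzyme.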
gsp ag: activates gsp, the McCune-Albright syndrome mutation. gsp mutant cells, cAMP HTRF, 30 min; control for the full effect not named in the record. Potency, µM (doses to about 76.9 µM), inactives show at the highest dose activation (cAMP increase), most hits filed as activators. actives 0.13% (n = 340,000). AID 624287; active = well fitted activation curve with a large enough effect; inconclusive = small, poorly fitted or top-dose-only effect, or another doubt; inactive = no such curve, though single readings can be large or run the other way; cell line not stated here;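 further: phosphodiesterase inhibitor Ro 20-1724 added with compounds to block cAMP breakdown; potency means the concentration at half of the fitted maximal effect; nearly all actives have a fitted effect of over 60% in size; about a fifth of the inactives were tested at one dose only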
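Cells in DMEM/10% FBS with G418 were pretreated with compounds in DMSO plus […] (300 uM stock) for 30 min at 37C. cAMP was measured by HTRF (cAMP-d2 plus anti-cAMP antibody-K) after 30 min at room temperature.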
Starred values were filed as active, the others as inactive; ? = inconclusive; · = no result given; [ ] = another dose, or the depositor's remark.

SMILES	CtBP-E1A blk	TRPV1 potentiator	gsp antagonist	Sfp PPTase inh	Menin-MLL FL inh	ClpP mod	gsp ag
O=C1CCCC(=O)N1c1ccc(Oc2ccc(Cl)cc2)cc1	-3	-13	3%	-9%	3.2	1.0%	-8%
Cc1ncc(CN2CCCCC2C(=O)Nc2ccc(Oc3ccccc3)nc2)cn1 (configuration not stated)	-6	6	10%	7%	-7.0	-1.5%	-20%
O=S(=O)(Nc1ccccc1-c1ccccc1)c1ccccc1	10	·	-7%	·	·	·	-23%
Cc1ccc(Cl)c2sc(N3CCN(C(=O)c4ccco4)CC3)nc12	1	10	?	·	·	1.0%	3%[15.4 µM]
O=C(COc1ccc(Cl)cc1)N1CCCC1	-7	-34	1%	-4%	0.3	-3.1%	-28%
Cc1ccc(C)c(NC(=O)CN(C)C(=O)c2ccc(S(=O)(=O)N3CCCCCC3)cc2)c1	-8	-5	-15%	·	·	-0.7%	-51%[inhibitor]
O=C(COc1cc(Cl)c(Cl)cc1Cl)Nc1ccc([N+](=O)[O-])cc1Cl	·	25	7%	20%	5.0	1.5%	1%
O=S(=O)(Nc1nc2ccccc2nc1Nc1ccc(N2CCOCC2)cc1)c1cc(Cl)ccc1Cl	2	-12	?	29%	?	-1.5%	26%
CN1CCN(S(=O)(=O)c2ccc([N+](=O)[O-])cc2)CC1	-4	-7	9%	20%	-6.6	-3.6%	-28%
CN1CCC(N(C)C(=O)c2cc(-c3ccccc3Cl)nc3ccccc23)CC1	-30	-2	9%	·	·	-3.6%	14%
Cc1ccc(-n2c(SC3CCOC3=O)nc3ccccc3c2=O)cc1 (configuration not stated)	·	-11	·	8%	2.8	·	·
CC(=O)c1ccc(OCc2cc(C(=O)N(C)C(C)c3nccs3)no2)cc1 (configuration not stated)	4	-15	-8%	3%	1.0	-2.2%	0%
Cc1cc(=O)[nH]c2c(C)c(N)ccc12	1	16	0%	19%	2.7	52%	23%
CN1CCN(C(=O)c2ccc3c(c2)N(Cc2ccccc2)CCS3)CC1	-14	13	1%	-5%	3.8	4.6%	?
Cc1c(C(=O)N/N=C/c2ccccn2)nnn1-c1nonc1N	-19	-13	·	?	-4.3	·	-9%[15.4 µM]
COc1ccc(-c2nc(-c3ccc(Br)o3)no2)cc1OC	-20	26	-15%	-13%	1.9	-15%	3%
Cc1ccnc2ccc(SC(F)(F)F)cc12	4	1	8%	7%	-0.8	·	16%
CCOC(=O)N1CCN(C(=O)c2ccc3c(=O)n(Cc4ccccc4OC)c(=S)[nH]c3c2)CC1	-14	7	-19%	-4%	2.3	-2.2%	-113%[inhibitor]
CCCC(CCC(=O)Nc1ccn(-c2ccccc2)n1)C(=O)O (configuration not stated)	-5	-1	-5%	13%	4.6	·	-18%[15.4 µM]
CCC(=O)Nc1c2c(nn1-c1ccc(F)cc1)CS(=O)C2 (configuration not stated)	0	-3	16%	5%	-3.0	1.4%	-43%[inhibitor]
O=C(CCS(=O)(=O)c1ccc2c(c1)NC(=O)CO2)NCc1ccccc1	0	-14	13%	16%	-1.3	1.3%	-16%
Cc1cccc(C)c1NC(=O)CNC(=O)c1ccccc1OCc1ccccc1	4	-3	1%	·	·	0.9%	4%[15.4 µM]
CC(=O)NC1(C(F)(F)F)C(=O)Nc2c1c(=O)n(C)c(=O)n2C (configuration not stated)	-7	-1	0%	14%	-2.0	-7.2%	10%
Cc1ccc(CN2CCN(C(=O)c3ccncc3)CC2)cc1	·	6	3%	?	0.7	0.8%	-69%[inhibitor]
CC(NC(=O)c1cn(C)c2ccc(S(=O)(=O)N3CCCC3)cc2c1=O)c1ccccc1 (configuration not stated)	-11	-8	-16%	-2%	·	-0.1%	2%

Remaining list, next part:
SMILES	CtBP-E1A blk	TRPV1 potentiator	gsp antagonist	Sfp PPTase inh	Menin-MLL FL inh	ClpP mod	gsp ag
CC(C)(C)OC(=O)C[C@@H]1C/C=C\C[C@H](CC(=O)N(CCO)Cc2ccccc2)C(=O)N[C@@H](Cc2c[nH]c3ccccc23)COC1=O	3	·	?	·	·	-2.2%	?
CCNC(=O)CSc1nc2ccccc2c(=O)n1OC	5	-1	-4%	-2%	-0.9	-0.1%	0%
Cc1ccccc1OCCCN1CCCC1	-6	·	-8%	-5%	4.3	3.4%	13%
CCn1c(SCC(=O)Nc2nccs2)nnc1-c1ccco1	-1	-14	-3%	-6%	0.6	·	4%[15.4 µM]
CC/C(C)=N\NC(=O)CNC(=O)c1ccc(Cl)cc1Cl	7	-6	6%	11%	0.3	·	27%
COc1ccc(OC)c(NC(=O)c2ccc(-n3cccn3)nc2)c1	7	-7	10%	11%	-1.7	-3.6%	-32%[inhibitor]
O=C(COC(=O)C1CCN(c2ccc(C(F)(F)F)cn2)CC1)NCc1ccc(Cl)cc1Cl	6	-3	-1%	·	·	?	22%
CCN(CC)c1ccc(S(=O)(=O)N2CCOCC2)cc1NC(=O)Cn1nc(C)c([N+](=O)[O-])c1C	·	-6	1%	·	·	-1.4%	5%
CCNC(=O)COc1ccc(CC)cc1	-9	-6	8%	14%	0.1	1.3%	-23%
O=C(CNS(=O)(=O)c1ccccc1)NCc1cccnc1	5	4	-5%	-13%	-1.3	-1.5%	?
CC(=O)Oc1ccccc1C(=O)N(C1CCCCC1)C1CCCCC1	-7	5	-15%	18%	-5.3	3.0%	12%
COc1ccc(-c2nc3c(-c4ccccc4)cnn3cc2C)cc1F	2	-2	0%	29%	0.1	·	-1%[15.4 µM]
COc1ccc2c(c1)c(CC(=O)OCC(=O)N(C)C)c(C)n2C(=O)c1ccc(Cl)cc1	2	-7	?	6%	-0.4	·	-12%
O=C1C(O)CC2c3ccccc3CC3(CCCC3)N12 (configuration not stated)	2	-2	-1%	15%	2.8	-0.3%	-31%[inhibitor]
COc1ccc(N2C(=O)CC(SC(C)C)C2=O)cc1 (configuration not stated)	-1	-6	2%	8%	2.8	-3.2%	-62%[inhibitor]
Cc1ccc(C2C3=C(CC(C)(C)CC3=O)N(CCN3CCOCC3)C3=C2C(=O)CC(C)(C)C3)cc1	5	-3	-1%	4%	2.1	?	-11%
Cc1ccc(CSCC(Nc2ccc(C(=O)O)cc2[N+](=O)[O-])C(=O)O)cc1 (configuration not stated)	10	8	-2%	3%	-0.6	1.3%	-32%[inhibitor]
COc1cccc(N=Nc2c(N)[nH]n3c(=O)c4c(nc23)CCCC4)c1	-16	7	·	6%	1.4	·	3%[15.4 µM]
COc1ccc(C(=O)CN2C(=O)c3ccccc3C2=O)cc1	16	4	-17%	-2%	4.1	-0.1%	2%[15.4 µM]
COc1ccc(-c2n[nH]c(=S)n2/N=C/c2cccn2C)cc1	·	9	?	-3%	-3.7	-0.7%	-15%
O=C(COC(=O)c1cnccn1)Nc1ccc(Cl)cc1	2	12	-2%	12%	3.6	-0.4%	10%
O=C1N[C@@H](Cc2ccccc2)[C@@H](c2ccco2)O1	4	8	7%	4%	4.7	-0.6%	?
O=C(Nc1ccc(CN2CCCCC2)cc1)c1c(F)c(F)c(F)c(F)c1F	-3	-8	9%	13%	1.6	·	-36%[inhibitor]
COc1cccc(C(=O)Nc2nnc(-c3cccs3)o2)c1	-25	·	5%	2%	-5.4	0.1%	-33%[inhibitor]
CCN(CC)S(=O)(=O)c1ccc(OC)c(NC(=O)C(Cc2ccccc2)N2C(=O)c3ccccc3C2=O)c1 (configuration not stated)	·	-12	·	13%	1.5	·	·

Remaining list, next part
SMILES	CtBP-E1A blk	TRPV1 potentiator	gsp antagonist	Sfp PPTase inh	Menin-MLL FL inh	ClpP mod	gsp ag
CC1=CC(=O)C(C(C)=Nc2cccc(Cl)c2)C(=O)O1 (configuration not stated)	6	·	-25%	·	·	·	12%
Cc1c(C(=O)NNC(=O)c2ccccc2O)oc2ccc(Br)cc12	-2	·	-3%	·	·	1.3%	-5%[15.4 µM]
CC1CCN(CC(=O)NC(=O)NCc2ccccc2)CC1	-4	-10	6%	13%	3.0	1.4%	17%
CC(C)(C)CNC(CO)C12CC3CC(CC(C3)C1)C2 (configuration not stated)	5	-11	4%	10%	2.8	-0.9%	-20%
COCCNC(=O)COc1ncnc2ccc(Br)cc12	-3	3	2%[15.4 µM]	-6%	2.3	1.1%	?
O=C(Nc1ccccc1)C1CCCN1S(=O)(=O)c1cccs1 (configuration not stated)	13	8	7%	·	·	·	-6%[15.4 µM]
COC(=O)C1CN(C(=O)COc2ccccc2C)c2ccccc2O1 (configuration not stated)	4	-2	-2%	2%	-4.4	·	-28%
Oc1cccc(-n2nnnc2SCc2ccccc2F)c1	1	-8	-18%	7%	8.5	-0.3%	20%
COc1cccc(OCCNC(=O)CSc2ccc(C(F)(F)F)cc2[N+](=O)[O-])c1	-7	1	-8%	2%	0.0	-0.8%	-20%
COc1cccc(CN2CCCC(C(=O)c3ccc4c(c3)OCO4)C2)c1OC (configuration not stated)	-14	?	-1%	19%	5.5	·	-1%
CCN(CC)S(=O)(=O)c1ccc(N2CCc3cc(OC)c(OC)cc3C2)nc1	-10	?	0%	-5%	1.8	·	12%
O=C(/C=C/c1ccccc1)NCCc1c[nH]c2ccccc12	-4	·	-14%	·	·	·	4%
O=[N+]([O-])c1ccc2c(c1)/C(=N\O)c1ccccc1-2	1	1	-31%	-5%	2.2	-9.4%	-8%[15.4 µM]
CC1CCCCC1NC(=O)c1nn(C)c(=O)c2ccccc12 (configuration not stated)	3	-13	4%	3%	3.0	0.7%	11%
COc1ccc(CNC(=O)C(=O)c2cn(CC(=O)N3CCCC3)c3ccccc23)cc1	6	21	-2%	-3%	·	-4.6%	-87%[inhibitor]
Cn1c(=O)c2c(nc(NCCOc3ccc(F)cc3)n2C)n(C)c1=O	-1	4	-5%	-10%	0.5	-2.1%	-4%[15.4 µM]
Cc1oc(-c2cc3c(cc2Cl)OCO3)nc1CN1CCCC1c1ccc(F)cc1 (configuration not stated)	-6	-4	-9%	-9%	11	·	-3%[15.4 µM]
Cc1nc(NC(=O)c2ccccc2)sc1-c1csc(Nc2ccc(C(=O)O)cc2)n1	-3	2	-23%	-23%	7.4	·	-12%[15.4 µM]
